Screening results as filed in PubChem.
UCH37 DUB inh: inhibitors of human deubiquitinating enzyme UCH37. purified proteasome/UCH37, Ub-AMC cleavage fluorescence. inhibition, % (concentration not given with the values). 0.33% of 330,000 active;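 active = mean of two replicates above 20%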;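 note: 0% = compound-free wells with enzyme and 100% = wells lacking proteasome; stock transfer was 100 nL into about 20 µL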
Target sequence (Q9Y5K5 whole entry, looked up): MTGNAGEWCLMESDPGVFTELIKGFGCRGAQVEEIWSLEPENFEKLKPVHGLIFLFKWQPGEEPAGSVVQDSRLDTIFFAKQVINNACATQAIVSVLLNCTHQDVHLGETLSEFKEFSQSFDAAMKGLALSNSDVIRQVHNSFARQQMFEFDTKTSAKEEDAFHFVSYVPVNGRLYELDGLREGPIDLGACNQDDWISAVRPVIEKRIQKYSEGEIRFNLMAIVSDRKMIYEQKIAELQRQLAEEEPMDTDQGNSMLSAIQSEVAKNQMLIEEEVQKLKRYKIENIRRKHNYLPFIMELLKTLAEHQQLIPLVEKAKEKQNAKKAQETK
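Signal – fluorescence, ex 355 nm, em 460 nm · System – Proteasome-bound UCH37 · Input – 0.15 nM proteasome as dispensed · Timing – 30 min preincubation with enzyme, 25 min cleavage at room temperature · Read-out basis – percent inhibition of cleavage signal versus uninhibited and no-proteasome wells · Medium – Tris-HCl pH 7.4 with ATP-MgCl2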
A1 inh: inhibitors of the anti-apoptotic protein A1, read as caspase activation. MEF A1-2A-BIM cells, Caspase-Glo 3/7 luminescence, 3 h; percent of clofoctol response, vehicle zero. caspase activation, % (test concentration not listed). 0.066% of 330,000 active. AID 2462;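 active = over half of replicate activation scores above 10%, or exactly half above 10 with the replicate mean above 10; inconclusive = replicate mean below 10 yet half the replicates above 10; inactive = over half of replicates below 10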;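 note: wells of about 30 µL received 50 nL stock; many hits fall short of the cut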
LANA-H2B inh: blocks KSHV LANA binding to histone H2A/H2B; Q9QR71; 0.6% of 320,000 active; inhibition, % (concentration not given with the values); cell-free LANA-H2A/H2B peptide, fluorescence polarization; in the data active = inhibition mostly above about 10%, no sharp cut-off; inactive = mostly below about 6.7%;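 note: stock transfer was 7.5 nL into about 10 µL; 0% = median of vehicle wells and 100% = median of positive control wells; one replicate is shown; the record names a cut of 25% in any replicate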
HNF4A DNA FP: change in binding of human HNF4 alpha to DNA. 0.3% of 360,000 active. HNF4a-FITC DNA binding, fluorescence polarization, 1 h. AID 1224865. P41235. activity change, % at 10 µM; in the data active = activity change above about 30%, passing the limit was not always enough;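 note: controls were the assay level and a saturating level of protein; the project sought stronger binding though the title names inhibitors; some compounds called inactive have numbers as strong as hits; positive values seem to mean higher polarization but the record does not say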
Target sequence (P41235 whole entry, looked up): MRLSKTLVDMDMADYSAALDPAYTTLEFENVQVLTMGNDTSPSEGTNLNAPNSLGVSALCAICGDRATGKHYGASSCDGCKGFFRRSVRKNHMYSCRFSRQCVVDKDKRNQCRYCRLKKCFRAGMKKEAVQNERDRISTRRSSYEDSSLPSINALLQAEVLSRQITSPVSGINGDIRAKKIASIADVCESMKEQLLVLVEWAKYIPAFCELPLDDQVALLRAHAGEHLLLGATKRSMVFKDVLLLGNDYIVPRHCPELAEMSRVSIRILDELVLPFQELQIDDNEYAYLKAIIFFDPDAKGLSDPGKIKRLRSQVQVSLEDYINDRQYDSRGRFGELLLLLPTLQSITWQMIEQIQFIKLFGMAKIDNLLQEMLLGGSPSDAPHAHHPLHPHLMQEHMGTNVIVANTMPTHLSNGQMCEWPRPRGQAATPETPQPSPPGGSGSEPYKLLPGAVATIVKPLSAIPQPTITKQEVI
Ecoli growth: blocks Escherichia coli growth; 0.21% of 330,000 active; OD600 absorbance (no concentration beside the values); AID 1053175; OD600, 23 h; active compounds read low;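 active = OD600 absorbance below the run mean of sample wells minus 3.6 SD, in any replicate, cut at about 0.56 in these data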;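 note: stock transfer was 300 nL into about 60 µL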
B2AR ag: agonists of human beta-2 adrenergic receptor inducing internalization | 0.43% of 340,000 active | P07550 | Am2.2-beta2AR cells, FAP receptor internalization, flow cytometry; reference of the scale not given here | AID 504454 | response, % (test concentration not listed);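 active = response above a set limit, near 3 SD of response in nonfluorescent compounds, cut at about 42% in these data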;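 note: stock transfer was 100 nL into about 11 µL; a reference agonist was the positive control; negative values mostly stem from fluorescent compounds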
Vif TR-FRET: HIV-1 Vif–A3G interaction blockers – biochemical, TR-FRET, GST-Vif 1-94, biotin-A3G peptide, dose response retest, primary screen (AID 1117319); TR-FRET GST-Vif / biotin-A3G peptide binding; higher % means a stronger effect; test concentration not given here; strong numbers were not always called active; 0.57% of 260,000 active; inhibition, %; hits with a dose series show IC50 in µM;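 active = above the screen mean plus three standard deviations and confirmed in dose response; inconclusive = results disagree or hit not tested in dose response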;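 note: Vif residues 1-94 fused to GST binding biotinylated APOBEC3G peptide 110-148; 0% = full assay without inhibitor and 100% = GST in place of GST-Vif; retest series ran down from 100 µM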
* hit, by the source's call; ? = inconclusive; · = not tested or not shown.

Sequence of screens: UCH37 DUB inh	A1 inh	LANA-H2B inh	HNF4A DNA FP	Ecoli growth	B2AR ag	Vif TR-FRET
> COc1ccccc1N(CC(=O)NCCSCc1cccc(C)c1)S(=O)(=O)c1ccccc1
  5.3	0.1	-3.2	-0.1	0.74	21	·
> O=C(NC(Cc1ccccc1)C(=O)O)/C(=C/c1ccco1)NC(=O)c1cccc(Br)c1 (stereo unspecified)
  5.6	0.0	1.6	-11	0.68	1	·
> Cc1cc(C)nc(SCC(=O)NN=Cc2ccc(C)o2)n1
  3.4	0.8	2.9	1.4	0.69	-7	2%
> COc1ccc(C(=O)CC(Nc2ccc([N+](=O)[O-])cc2)c2ccc(OC)cc2)cc1 (stereo unspecified)
  4.0	1.8	-3.5	-1.6	0.72	5	21%
> COc1ccc(S(=O)(=O)NCc2ccccc2)cc1
  0.6	-0.7	-0.6	4.0	0.73	-4	7%
> COc1ccccc1NS(=O)(=O)c1cccc(C(=O)N/N=C(\C)c2cccnc2)c1
  ·	-0.5	-2.2	1.0	·	-7	17%
> COc1cc(/C=C/C(=O)N2CCN(c3ccccn3)CC2)cc(OC)c1OC
  -1.4	0.2	5.9	7.9	0.72	0	·
> O=C(CSc1nnnn1-c1ccc(Cl)cc1)N1CCc2ccccc2C1
  7.2	-0.3	5.3	1.1	0.71	-7	4%
> CCOC(=O)c1c(CNc2ccncc2)n(C)c2cc(Br)c(O)cc12
  4.1	-0.1	0.8	0.4	0.7	-4	1%
> O=C(NCCc1ccc(F)cc1)c1n[nH]c2ccccc12
  3.1	-0.9	-6.7	-2.8	0.65	-5	1%
> c1ccc(CC2CCCNC2)cc1 (stereo unspecified)
  -1.8	-0.5	2.5	5.2	0.75	-1	1%
> Cc1cc(NC(=O)COC(=O)C2CCN(S(=O)(=O)c3cccc(Cl)c3Cl)CC2)no1
  3.7	-0.2	-0.5	-1.6	0.71	-2	0%
> O=C(C[n+]1cccc(Br)c1)c1ccccc1
  0.5	0.8	-2.4	3.5	0.69	4	-3%
> COc1cc(C=O)ccc1OCCOCCOc1ccc(Cl)cc1Cl
  3.8	0.2	-7.1	0.4	0.71	0	-4%
> COC(=O)c1c(N)sc(C(C)=O)c1C
  14	0.0	-1.1	4.2	0.67	17	-1%
> CC(C)C(=O)NCC(c1cccs1)S(=O)(=O)c1ccc(F)cc1 (stereo unspecified)
  -1.4	-0.7	-1.1	0.5	0.67	2	·
> CCCCC(=O)NNC(=O)CC(=O)Nc1ccccc1C(=O)O
  -0.6	0.4	0.2	2.9	0.68	-15	10%
> CC(=O)N1CCN(C(=S)NC(=O)c2ccc(F)cc2)CC1
  4.4	0.4	0.3	-2.6	0.69	3	5%
> Cc1ccc(S(=O)(=O)/N=C(\CSC(N)=O)Nc2ccccc2)cc1
  ·	-0.5	-0.5	2.6	·	-6	?
> c1ccc(-c2nc(C3CCCCC3)c3sccc3n2)cc1
  3.6	-0.8	7.9	-4.4	0.69	-4	·
> C/C(CC(=O)NCc1ccc(Cl)cc1)=N\NC(=O)Cc1ccccc1
  ·	1.0	1.7	0.3	·	4	-8%
> O=C(O)c1c2c(nc3ccccc13)CCCCC2
  2.6	0.3	-4.7	-1.4	0.66	1	2%
> COC(=O)c1sc(NC(=O)c2ccncc2)nc1C
  13	0.0	-4.8	-0.4	0.67	-3	·
> CC1(C)CC(CCNC(=O)CCl)(c2ccccc2)CCO1 (stereo unspecified)
  1.9	0.3	-0.3	-0.3	0.69	-5	27%
> Cc1nnc(SCC(=O)NCC(=O)Nc2ccc(F)c(F)c2F)n1N
  3.0	0.5	-1.5	3.7	0.7	-3	1%
> Oc1ccc(N=Nc2ccccc2)cc1
  5.7	-9.2	-0.8	1.6	0.58	-2	-1%
> CCCCOc1c(Cl)cc(C(=O)N(C)CC(=O)Nc2ccc(N3CCOCC3)cc2)cc1OCC
  5.6	0.1	4.6	1.9	0.71	-3	·
> C/C(NCCN1CCOCC1)=C(\C#N)C(N)=O
  4.9	0.3	-14	-1.0	·	1	-4%
> CN(CC(=O)Nc1c(Cl)cccc1Cl)C(=O)c1cccc(-n2cccc2)c1
  -0.2	0.2	-24	-22	0.65	0	31µM*
> c1cc2ccc3ccc(CN4CCOCC4)c4ccc(c1)c2c34
  -62	0.0	3.0	-7.0	0.58	10	?
> COc1ccc(NC(=O)c2ccc(=O)[nH]c2)cc1S(=O)(=O)N1CCOCC1
  2.8	·	·	5.3	0.66	-1	-3%
> CCOC(=O)C1(CCCc2ccccc2)CCN(C(=O)CCn2cncn2)CC1
  -29	0.2	-4.4	1.4	0.66	0	-1%
> COc1ccc(C(CC(=O)Nc2ccccn2)N2Cc3ccccc3C2=O)cc1 (stereo unspecified)
  0.2	0.0	5.4	0.1	0.69	-9	16%
> FC(F)(F)Oc1ccccc1-c1nnc(-c2cccc(C(F)(F)F)c2)o1
  2.6	0.0	0.2	0.2	0.67	-10	-11%
> c1cc2cc(-c3c(-c4ccc5c(c4)OCO5)noc3-c3ccsc3)ccc2[nH]1
  ·	-0.5	-1.3	-23	·	12	·
> COC(=O)c1ccc(/C=N/NC(=S)NC(C)C)cc1
  ·	-0.4	-3.6	1.8	·	1	·
> COc1cc(CC(=O)NCCc2ccc(S(N)(=O)=O)cc2)cc(OC)c1OC
  -1.2	0.5	0.0	-3.1	0.72	0	-1%
> Cc1ccc(C(=O)NNC(=O)OC(C)(C)C)c(Cl)c1
  0.2	0.8	6.0	-5.9	0.65	-2	31%
> Fc1ccc2[nH]c3c(Cl)ncnc3c2c1
  -134	1.5	3.0	2.6	0.61	11	-3%
> CCC1CCCCN1CCCNC(=O)C1CCCN(c2ncnc3c2nc2n3CCCCC2)C1 (stereo unspecified)
  1.6	0.6	6.0	0.7	0.69	-17	0%
> Cc1cnc([N+](=O)[O-])n1CCOC(=O)c1cccc(F)c1
  1.2	0.9	-1.0	-1.2	0.63	-5	4%
> COc1ccccc1C(=O)Nc1ccc(NC(=O)C2CCCCC2)nc1
  1.1	-0.9	-6.0	-1.6	0.65	4	3%
> CC(=O)Nc1ccc(SCC(=O)Nc2cc(C)on2)cc1
  3.8	1.2	-0.1	2.6	0.69	0	·
> N#CCCn1nc(-c2ccccc2)cc1Nc1ccccc1NC(=O)c1cccs1
  2.5	-0.3	2.2	-2.4	0.72	17	2%
> COc1ccc(Cl)cc1N1C(=O)C2CCCN2C1c1sccc1C (stereo unspecified)
  1.2	1.5	-2.9	-2.1	0.65	2	20%
> Cc1cc(=O)n2nc(N3CCC(C(=O)NCc4cccnc4)CC3)sc2n1
  1.5	0.5	-3.1	-5.0	0.72	13	2%
> COc1ccc2c(c1)[C@H]1[C@H](CO2)[C@H](c2ccccc2)[C@]2(C)C(=O)Nc3ccc(Cl)cc3C(=O)N12
  -2.1	·	·	17	·	2	·
> CCOC(=O)c1nn(-c2ccccc2C)c(=O)cc1OCC(=O)N1CCN(c2ccccc2)CC1
  1.5	0.3	·	-3.4	0.67	-12	-4%
> O=C(CNC(=O)c1ccc(Br)o1)Nc1cccc(S(=O)(=O)N2CCOCC2)c1
  -0.1	0.5	-1.1	0.1	0.62	9	1%
> COC(=O)N/N=C/c1cc(OC)c(O)c([N+](=O)[O-])c1
  ·	-1.3	0.5	-1.7	·	-10	19%
> CC(C)N(Cc1nc2ccccc2c(=O)[nH]1)C(=O)c1ccc(NC(=O)CSc2nnnn2C)cc1
  -0.8	0.4	4.1	-1.0	0.69	-5	-7%
> COc1ccc(-c2ccc(-c3nnn(CC(=O)N4CCOCC4)n3)cc2)cc1
  -3.8	-3.0	-0.1	-3.7	0.69	4	?
> Cn1c(N)c(C(=O)c2ccc(Oc3ccccc3)cc2)c(=O)n(C)c1=O
  1.1	-0.1	11	-0.5	0.71	-10	18%
> Cc1ccccc1-c1nnc(SCCOc2ccc3c(C)cc(=O)oc3c2)o1
  -8.4	-0.3	2.4	-0.5	0.75	-9	-4%
> CC(=O)c1ccc(N=Nc2c(C)[nH][nH]c2=O)cc1
  12	-7.7	-1.9	0.8	0.68	-8	·
> CCOC(=O)N1CCN(C(=O)COC(=O)CNC(=O)c2ccc(OCC)c(OCC)c2)CC1
  1.8	·	·	0.2	0.65	-7	3%
> CC(NC(=O)CCn1ccc2cc(S(=O)(=O)N3CCCC3)ccc21)c1ccccc1 (stereo unspecified)
  1.8	0.9	0.7	3.0	0.7	4	0%
> CCNC(=S)N(CCN(CC)CC)Cc1cc2cc3c(cc2[nH]c1=O)OCCO3
  ·	0.6	-5.9	2.3	·	-8	3%
> Cc1cccc(N2CCN(C(=O)C3CCC(=O)N(Cc4ccccc4F)C3)CC2)c1C (stereo unspecified)
  2.4	-0.3	2.1	-2.4	0.67	7	·
> CC1CCC(C(C)C)C(OCC(O)C[N+]2(C)CCCCC2)C1 (stereo unspecified)
  2.9	0.9	-7.7	3.2	0.67	2	22%

More structures:
Sequence of screens: UCH37 DUB inh	A1 inh	LANA-H2B inh	HNF4A DNA FP	Ecoli growth	B2AR ag	Vif TR-FRET
> COc1ccccc1NC(=O)NCC1CC1(Cl)Cl (stereo unspecified)
  1.4	-0.4	3.7	-6.9	0.7	-3	·
> Cc1cccc(NC2=C(NCCO)C(=O)c3ccccc3C2=O)c1
  8.4	0.8	1.7	-4.0	0.71	2	0%
> O=C(C1CCN(S(=O)(=O)c2ccc(Cl)c(C(F)(F)F)c2)CC1)N1CCC1
  -1.5	-0.5	2.6	14	0.65	-6	?
> COc1ccc(CN2CCOCC2)cc1
  -0.2	1.7	-0.7	0.3	0.78	-2	-1%
> COc1ccc(/C=N/NC(=O)c2nc(Cl)c(Cl)c(N)c2Cl)cc1COc1ccccc1F
  ·	-0.5	4.1	3.3	·	50*	28%
> CCc1ccc([C@@H]2C[C@H]3CN(Cc4ccccc4OC)C(=O)[C@]34CCCN24)cc1
  ·	0.1	0.2	7.2	·	5	·
> CCOc1ccc(-n2nc3c(=S)[nH]nc(C)c3c2C)cc1
  6.7	0.2	2.6	3.6	0.69	-12	-229%
> CC1Sc2ccc(C(=O)NCc3ccccc3Cl)cc2NC1=O (stereo unspecified)
  2.0	0.3	1.4	-3.6	0.67	5	·
> Cc1c(C(=O)C(=O)NCc2ccco2)c2ccccc2n1C
  0.4	2.7	-2.4	-2.6	0.71	21	5%
> CCC(C)n1c(SC(C)C#N)nc2ccccc2c1=O (stereo unspecified)
  4.4	0.0	-0.3	1.0	0.66	-2	6%
> O=C(O)c1ccc(CSc2nnnn2-c2ccc(F)cc2)cc1
  1.2	0.5	0.3	0.5	0.68	-2	2%

In another format: entries from further up
Molecule	UCH37 DUB inh	A1 inh	LANA-H2B inh	HNF4A DNA FP	Ecoli growth	B2AR ag	Vif TR-FRET
CCOC(=O)N1CCN(C(=O)COC(=O)CNC(=O)c2ccc(OCC)c(OCC)c2)CC1	1.8	·	·	0.2	0.65	-7	3%
c1ccc(CC2CCCNC2)cc1 (stereo unspecified)	-1.8	-0.5	2.5	5.2	0.75	-1	1%
CCOC(=O)c1nn(-c2ccccc2C)c(=O)cc1OCC(=O)N1CCN(c2ccccc2)CC1	1.5	0.3	·	-3.4	0.67	-12	-4%
COC(=O)c1sc(NC(=O)c2ccncc2)nc1C	13	0.0	-4.8	-0.4	0.67	-3	·
